# Mtb H37Rv: M. tuberculosis H37Rv growth inhibitors, H37Rv strain (AID 1626); M. tuberculosis H37Rv growth inhibition; higher % means a stronger effect; inhibition, % at 10 µM; hits with a dose series show IC50 in µM; 220,000 tested, 0.95% active;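 active = confirmed in a dose series; inconclusive = inhibition above 80% but not taken into the dose series; inactive = below 80% or under 30% at every dose of the series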;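 also: bacteria incubated seven days before Alamar blue readout; 0% = bacteria only wells and 100% = bacteria with antibiotic wells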
# Arbovirus inh: arbovirus infection inhibition; AID 1251; arbovirus infection cell-based antiviral screen; 200,000 tested, 0.37% active; inhibition, % at 10 µM;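 active = inhibition from about 30%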;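 also: bluetongue infection of BSR cells; cell survival read as ATP light after 72 h; 0% = infected wells without compound and 100% = uninfected wells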
# YopH inh: YopH (Yersinia) phosphatase inhibition; 140,000 tested, 0.16% active; fluorescence Ex485/Em525; inhibition, %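 (about 10 µM by stock and volumes)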;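 active = inhibition of 50% or more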;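 also: controls were vehicle for no effect and minimum signal wells for full effect; inactives centre near -20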
# RecA splice inh: inhibitors of M. tuberculosis RecA intein splicing; cell-free RecA intein splicing, fluorescence; inhibition, %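 (about 9 µM by stock and volumes)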; 290,000 tested, 0.75% active; in the data active = inhibition above about 30%; inconclusive = no clear call, values can overlap the other calls;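 also: 0% = vehicle wells and 100% = reference inhibitor control wells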
# Target sequence (P9WHJ3 whole entry, looked up, canonical isoform): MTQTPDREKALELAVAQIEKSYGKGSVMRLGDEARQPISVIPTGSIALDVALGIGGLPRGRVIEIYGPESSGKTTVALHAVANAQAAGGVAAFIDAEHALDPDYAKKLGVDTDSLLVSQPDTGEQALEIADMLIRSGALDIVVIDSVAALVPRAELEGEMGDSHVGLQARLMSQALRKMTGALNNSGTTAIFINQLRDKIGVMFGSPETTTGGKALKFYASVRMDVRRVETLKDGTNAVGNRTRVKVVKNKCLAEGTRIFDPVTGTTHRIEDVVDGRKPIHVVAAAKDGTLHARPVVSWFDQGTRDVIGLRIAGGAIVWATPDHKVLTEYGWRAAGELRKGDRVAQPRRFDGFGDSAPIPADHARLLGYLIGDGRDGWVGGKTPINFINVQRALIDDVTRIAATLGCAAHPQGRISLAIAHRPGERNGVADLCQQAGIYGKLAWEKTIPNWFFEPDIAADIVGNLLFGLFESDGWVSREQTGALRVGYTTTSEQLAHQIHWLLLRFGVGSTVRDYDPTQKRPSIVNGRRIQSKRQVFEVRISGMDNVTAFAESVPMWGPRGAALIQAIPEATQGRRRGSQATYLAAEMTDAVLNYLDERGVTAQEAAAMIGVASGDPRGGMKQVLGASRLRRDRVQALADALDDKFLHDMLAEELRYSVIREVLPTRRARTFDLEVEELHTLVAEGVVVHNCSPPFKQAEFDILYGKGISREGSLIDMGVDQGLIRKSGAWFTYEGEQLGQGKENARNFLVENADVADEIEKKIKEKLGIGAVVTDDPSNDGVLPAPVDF
# Mtb betalactam: beta-lactam sensitization of Mtb H37Rv | M. tuberculosis H37Rv growth with meropenem, percent inhibition; hits of this screen are not shown here | inhibition, % at 25 µM | 330,000 tested, 0.27% active;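 active = about 74% or more and at least 40 points above the plate without the antibiotic, then above 30% in a dose series; inconclusive = first-round hits that could not be retested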;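 also: growth measured after seven days incubation then overnight dye step; 0% = bacteria only wells and 100% = bacteria with antibiotic; twin plates without the antibiotic show which effects depend on it; some results filed as inactive read as strong as hits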
# Arbovirus inh repeat: recorded beside Arbovirus inh, whose call it bears; inhibition, %; measured here: 10K subset replicate screen; many hits read low in the repeat;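 first of two repeat runs on a subset; 0% = infected and 100% = uninfected wells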
# An asterisk follows results filed as active; u = inconclusive; x = no result given. These rows are one share of the data; rates above refer to the full screens.
SMILES,Mtb H37Rv,Arbovirus inh,YopH inh,RecA splice inh,Mtb betalactam,others
C=C(C)C1CC=C(C)/C(=N/NC(=O)CCC(=O)Nc2ccccc2Cl)C1 (centres undefined),x,x,x,1.0,4,
c1ccc2c(c1)OCC(c1csc3ncnc(N4CCOCC4)c13)O2 (centres undefined),0%,14,-36,2.6,-1,Arbovirus inh repeat=4
O=C(NCc1cccnc1)C1CCN(S(=O)(=O)N2CCOCC2)CC1,-5%,4,-53,-2.6,-10,
CC(C)N(Cc1nc2ccccc2[nH]1)C(C)C,-1%,-5,-8,-1.1,-6,Arbovirus inh repeat=0
COc1ccc(/C(C)=N/OCC(=O)Nc2nc3ccccc3s2)cc1,8%,10,-29,9.4,3,
Cc1ccc(S(=O)(=O)Nc2ccc(NC(=O)c3c(F)c(F)c(F)c(F)c3F)cc2)cc1,89%,0,x,12,11,
CCC(C)Cn1c(C)nc2ccccc21 (centres undefined),6%,12,-26,-0.7,-4,
O=[N+]([O-])c1ccc(N2CCN(c3ccccc3O)CC2)c(Cl)c1,9%,13,-24,-0.3,24,
Nc1c(N2CCOCC2)cc(Cl)c2nonc12,2%,3,8,0.0,7,
COc1ccc2nc(NC(=O)C3CCN(S(=O)(=O)c4cccs4)CC3)sc2c1,3%,-9,-11,-2.3,6,
CC12CCC(C(=O)Nc3ccccc3-n3cccc3)(CC1=O)C2(C)C (centres undefined),3%,6,-11,3.5,3,
CC(Oc1ccccc1)c1ccn[nH]1 (centres undefined),2%,4,x,1.6,1,
Cc1nc2ccccc2c(=O)n1CCCO,-2%,1,-16,-0.2,-18,Arbovirus inh repeat=-2
CCOC(=O)N1CCC(NC(=O)CS(=O)(=O)Cc2nc(-c3ccccc3C)oc2C)CC1,-6%,7,-28,-6.2,-5,
CNc1cc(N2CCN(C)CC2)ccc1[N+](=O)[O-],-1%,-3,x,1.6,-5,
Cc1cc(C)cc(NC(=O)C2CCCN(S(=O)(=O)c3cnc[nH]3)C2)c1 (centres undefined),-16%,4,-24,x,2,
O=C(Nc1ccc(-c2csc(-c3ccccc3)n2)cc1)c1ccccc1Cl,-2%,-8,-28,x,15,
C=CCn1cnc2scc(-c3ccc(OC)cc3)c2c1=O,x,x,x,-4.9,5,
COc1cc(/C=N/NC(=O)c2cccc(C(=O)N/N=C/c3ccc(O)c(OC)c3)n2)ccc1O,x,x,x,-4.0,6,
COc1ccc(CNC(=O)C(CC(C)C)NC(=O)c2ccccc2C)cc1 (centres undefined),x,x,x,-1.0,17,
CCCCOC(=O)/C=C/c1c(C)[nH]c(=O)[nH]c1=O,2%,-5,-8,-3.4,2,
COc1cc(-c2nnc(COc3ccc4ccccc4c3)o2)cc(OC)c1OC,x,15,-27,0.6,-17,
O=C(c1ccc2c(c1)N(Cc1ccc(F)cc1)C(=O)CS2)N1CCOCC1,-4%,5,8,4.2,-3,
CCN(CC(=O)Nc1c(F)cccc1F)C(=O)Cc1ccccc1,-3%,1,x,0.6,-2,
c1ccc(-c2noc(CN3CCN(C(c4ccccc4)c4ccccc4)CC3)n2)cc1,-2%,14,-29,5.3,-4,
Cc1c(Cc2ccccc2)sc(/N=C/c2ccc3ccccc3c2)c1C(N)=O,2%,-1,4,x,-10,
O=C(CCCN1C(=O)C(c2ccccc2)Oc2cccnc21)NCc1ccccc1F (centres undefined),x,x,x,1.6,-1,
Cc1ccc(NC(=O)CC2Oc3ccc(C)cc3NC2=O)cc1 (centres undefined),-2%,2,-53,x,x,
O=C(c1cccc(Cl)c1)C1CCCN(C(=O)c2ccoc2)C1 (centres undefined),-9%,-4,x,x,-7,
CCC(=O)NCC(c1cccs1)S(=O)(=O)c1ccc(C)cc1 (centres undefined),x,x,x,-2.7,-2,
CCOC(=O)c1oc2ccccc2c1NC(=O)Cc1cccs1,13%,3,-44,x,0,
Cc1c(NS(=O)(=O)c2ccc(Cl)c(C(=O)OC(C)C(=O)N3CCOCC3)c2)c(=O)n(-c2ccccc2)n1C (centres undefined),-4%,19,x,1.7,-4,
CCOC(=O)NCCc1ccc(OC)cc1,5%,1,-23,-0.9,-4,Arbovirus inh repeat=4
O=C(NC1CCc2ccccc21)c1cc(COc2ccc(F)cc2Cl)on1 (centres undefined),-12%,0,x,0.7,3,
CCC1CCCCN1C(=O)CSc1nc2ccsc2c(=O)n1Cc1ccccc1 (centres undefined),1%,-14,-9,-2.0,-7,
OCCNc1nc2ccccc2[nH]1,0%,9,-36,0.4,-4,
CCOc1cc2c(Cl)ncnc2c(OCC)c1OCC,-1%,x,x,0.2,-8,
NNc1nc2ccccc2c(=O)n1Cc1ccccc1,x,x,x,-2.0,1,
O=C(NC1CCCC1)C(c1ccsc1)N(C(=O)Cc1cccs1)c1ccc(F)cc1 (centres undefined),-1%,9,-6,-1.5,-5,
CSCC[C@H](NC(=O)Nc1ccc(S(N)(=O)=O)cc1)C(=O)O,-3%,x,x,-4.6,-8,
COc1ccc(C(=O)NC2CCCc3ccccc32)cc1 (centres undefined),x,x,x,0.0,2,
CCOc1ccc(S(=O)(=O)Nc2ccc(C(=O)NCCCN3CCCC3=O)cc2)cc1,x,x,x,-1.9,4,
CCCOC(=O)c1c(-c2ccc(C)cc2C)csc1NC(=O)C1C2CCC(O2)C1C(=O)O (centres undefined),6%,23,-40,4.0,1,
COc1ccc(OC)c(N2C(=O)NC(=O)/C(=C/c3ccc([N+](=O)[O-])s3)C2=O)c1,27%,-1,x,4.6,100,
COc1ccccc1/C=C/C(=O)c1c2c(c(C)[nH]c1=O)CCCC2,10%,-28,-22,1.6,u,
C/C(CC(=O)Nc1ccc(N(C)C)cc1)=N\NC(=O)c1ccc([N+](=O)[O-])cc1Cl,-1%,6,x,-6.9,15,
Cn1c(CNC(=O)CNS(=O)(=O)c2ccc(Br)cc2)cc(=O)n(C)c1=O,x,x,x,-0.6,-5,
O=c1c2ccccc2nc2n1C(CBr)CN2 (centres undefined),-12%,x,x,-1.0,1,
Cc1occc1C(=O)Nc1nnc(C(F)(F)F)s1,0%,10,-23,0.8,-9,
CCC(C)NC(=O)CSc1nnc(-c2ccc(Cl)cc2)n1N (centres undefined),-1%,12,x,0.1,-1,
O=C1CCCCN1CCC(=O)N1CCCC(N2CCN(c3ccccc3)CC2)C1 (centres undefined),x,x,x,-2.5,1,
CN(CC(=O)Nc1cccc(F)c1)C(=O)C1CC(=O)N(Cc2ccco2)C1 (centres undefined),x,x,x,1.4,-13,
Cc1ccc(-c2nnc(SCC(=O)N/N=C/c3ccc(C(=O)O)cc3)n2C2CCCCC2)cc1,x,x,x,-2.2,2,
c1cncc(CNC2=NCCC2)c1,-4%,7,-44,1.3,-2,
COc1ccc(/C=N/OCC(=O)Nc2nc3ccccc3s2)cc1,2%,2,-31,-0.8,-7,
Nc1nc(CN2CCCCCC2)nc(Nc2ccccc2)n1,1%,9,12,-0.4,3,
COc1cccc(CNS(=O)(=O)c2c(C)[nH]c(C)c2C(=O)N2CCCC2)c1,x,x,x,-0.6,u,
NS(=O)(=O)c1ccc2nc(NC(=O)CS(=O)(=O)c3ccc(F)cc3)sc2c1,x,x,x,-1.0,-5,
CCn1cc(SCC(=O)Nc2cc(C)on2)c2ccccc21,18%,6,-9,-0.8,-4,Arbovirus inh repeat=13
COc1ccc(OC)c(CNC(=O)C2CCCN(C(=O)N(C)C)C2)c1 (centres undefined),-5%,-3,-15,-2.7,-6,
# Remaining list, next part.
SMILES,Mtb H37Rv,Arbovirus inh,YopH inh,RecA splice inh,Mtb betalactam,others
CCOC(=O)c1nnc(-c2ccc(C)cc2)nc1Oc1ccc(Cl)cc1Cl,-6%,7,-35,3.4,48,
CN(C)C(=O)CN1C(=O)NC2(CCCc3ccccc32)C1=O (centres undefined),x,x,x,-0.3,-2,
Cc1nnc(NC(=O)c2ccc(S(=O)(=O)N3CC(C)OC(C)C3)cc2)o1 (centres undefined),x,x,x,0.0,-4,
CNS(=O)(=O)c1cccc(C(=O)Nc2cccc(Cl)c2)c1,2%,1,-16,0.3,-13,
CCN(CC)S(=O)(=O)c1ccc(N=NC2=C(O)CCCC2=O)cc1,2%,-3,-16,x,2,
O=C(CCC1CCCNC1)c1ccccc1 (centres undefined),x,x,x,-0.8,0,
Cc1cc(C)c[n+](-c2nc3ccccc3nc2[N-]S(=O)(=O)c2ccc(Br)s2)c1,6%,-6,-10,-3.5,2,
CN(C)CCSc1nc(-c2ccccc2)nc2c1CCC2,1%,4,-31,3.9,-6,
c1ccc(-c2nnc(N3CCN(c4ccccc4)CC3)nc2-c2ccccc2)cc1,-4%,x,x,0.9,-9,
CC(=O)Nc1cc(C(=O)OC(C(=O)c2ccccc2)c2ccccc2)ccc1C (centres undefined),x,-3,-3,5.6,-11,
Cc1ccc(OCC(=O)NC2CCCC2)c(C)c1,7%,-5,13,-0.1,-6,
COc1cc(CNCc2ccccn2)ccc1OCc1ccc(Cl)cc1,32%,3,-7,0.8,85,
CC(=O)c1cccc(NC(=O)CSc2nc(=O)n(CCCN3CCOCC3)c3c2CCC3)c1,x,x,x,-1.8,3,
CC1NC2(C(=O)N(Cc3ccccc3)c3ccccc32)C2C(=O)N(c3ccccc3)C(=O)C12 (centres undefined),1%,3,-26,1.7,-3,Arbovirus inh repeat=4
COc1cc(/C=N/NC(=O)C(=O)/C=C2\NC3(CCCC3)Cc3ccccc32)ccc1O,-1%,-15,-32,-56,-1,
CCn1c(C)nc2c1C(=O)c1ccccc1C2=O,3%,10,-12,14,73,
CCOC(=O)C(=NCC1CCCO1)NNc1cc(Cl)ccc1Cl (centres undefined),u,x,x,6.0,98,
O=C(NCCc1ccccc1)Oc1ccc(Cl)cc1,-10%,x,x,6.6,-1,
Cc1cc(NC(=O)c2cc(-c3ccccn3)nc3ccccc23)no1,-3%,2,-38,2.0,0,
CC1(C)CCc2c([nH]c3ccccc3c2=O)O1,-1%,-1,x,0.2,-3,Arbovirus inh repeat=4
COC(=O)[C@@H](NCc1cccc(CN[C@H](C(=O)OC)C(C)C)c1)C(C)C,x,x,x,-3.6,1,
CCc1ccc(N=C2NC(=O)/C(=C/c3ccc(OCC(=O)O)cc3)S2)cc1,x,x,x,9.9,-4,
CCCCn1c(SCC(=O)NC2CCS(=O)(=O)C2)nc2ccccc2c1=O (centres undefined),x,x,x,0.5,-2,
Fc1ccccc1OCCCCN1CCCCC1,x,x,x,0.6,-3,
Cc1ccc(N2C(=O)c3ccc(N)cc3C2=O)cc1C,-5%,-1,-4,-6.8,1,
O=C(c1ccc(OC2CCN(CCc3ccccc3)CC2)cc1)N1CCCCC1CCCO (centres undefined),x,x,x,-0.8,-1,
CC(C)NC(=O)c1sc2c(c1C(=O)Nc1cccnc1)CCCC2,1%,x,x,3.4,-4,
CCCN(CCC)S(=O)(=O)c1ccc(C(=O)Nc2nnc(-c3cc(OC)cc(OC)c3)o2)cc1,x,-14,-44,-1.5,85,
Cc1ccc(C)c(OCCC(=O)OCC(=O)NC2CC2)c1,x,x,x,-2.4,4,
N#C/C(=C\c1c[nH]c2ccccc12)C(=O)NCC1CCCO1 (centres undefined),-1%,-6,x,-7.1,-3,
COc1ccccc1/C=C/C(=O)OCC(=O)Nc1c(F)cccc1F,6%,8,x,-1.7,-6,
COc1cc(C(C(=O)NC2CCCC2)N(CCO)C(=O)Cn2nnc(-c3ccc(C)o3)n2)ccc1O (centres undefined),x,x,x,-2.5,5,

# In the list so far, 9 have an NH in an aromatic ring.
SMILES,Mtb H37Rv,Arbovirus inh,YopH inh,RecA splice inh,Mtb betalactam,others
CC(C)N(Cc1nc2ccccc2[nH]1)C(C)C,-1%,-5,-8,-1.1,-6,Arbovirus inh repeat=0
CC(Oc1ccccc1)c1ccn[nH]1 (centres undefined),2%,4,x,1.6,1,
Cc1cc(C)cc(NC(=O)C2CCCN(S(=O)(=O)c3cnc[nH]3)C2)c1 (centres undefined),-16%,4,-24,x,2,
CCCCOC(=O)/C=C/c1c(C)[nH]c(=O)[nH]c1=O,2%,-5,-8,-3.4,2,
OCCNc1nc2ccccc2[nH]1,0%,9,-36,0.4,-4,
COc1ccccc1/C=C/C(=O)c1c2c(c(C)[nH]c1=O)CCCC2,10%,-28,-22,1.6,u,
COc1cccc(CNS(=O)(=O)c2c(C)[nH]c(C)c2C(=O)N2CCCC2)c1,x,x,x,-0.6,u,
CC1(C)CCc2c([nH]c3ccccc3c2=O)O1,-1%,-1,x,0.2,-3,Arbovirus inh repeat=4
N#C/C(=C\c1c[nH]c2ccccc12)C(=O)NCC1CCCO1 (centres undefined),-1%,-6,x,-7.1,-3,

# Bioassay records: PubChem, several laboratories
